Source: PubChem BioAssay
KCNQ2 pot = potentiators of rat KCNQ2 potassium channel. Potassium voltage-gated channel subfamily KQT member 2 (Rattus norvegicus), O88943. CHO-K1 KCNQ2, FluxOR thallium flux fluorescence; hits give high values. B-score at 10 µM. actives 0.54% (n = 310,000);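 active = fluorescence ratio B-score at least 3 SD of library B-scores, with initial fluorescence B-score within 3 SD, cut at about 5.3 in these data; same plate scores as AID 2156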;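 note: B-score of peak minus minimum over baseline fluorescence ratio after K+ and Tl+ stimulus; positive B-score means potentiation of KCNQ2 with more thallium influx and brighter signal; only the inactives scoring about 0 or higher are listed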
Target sequence (O88943 whole entry, looked up): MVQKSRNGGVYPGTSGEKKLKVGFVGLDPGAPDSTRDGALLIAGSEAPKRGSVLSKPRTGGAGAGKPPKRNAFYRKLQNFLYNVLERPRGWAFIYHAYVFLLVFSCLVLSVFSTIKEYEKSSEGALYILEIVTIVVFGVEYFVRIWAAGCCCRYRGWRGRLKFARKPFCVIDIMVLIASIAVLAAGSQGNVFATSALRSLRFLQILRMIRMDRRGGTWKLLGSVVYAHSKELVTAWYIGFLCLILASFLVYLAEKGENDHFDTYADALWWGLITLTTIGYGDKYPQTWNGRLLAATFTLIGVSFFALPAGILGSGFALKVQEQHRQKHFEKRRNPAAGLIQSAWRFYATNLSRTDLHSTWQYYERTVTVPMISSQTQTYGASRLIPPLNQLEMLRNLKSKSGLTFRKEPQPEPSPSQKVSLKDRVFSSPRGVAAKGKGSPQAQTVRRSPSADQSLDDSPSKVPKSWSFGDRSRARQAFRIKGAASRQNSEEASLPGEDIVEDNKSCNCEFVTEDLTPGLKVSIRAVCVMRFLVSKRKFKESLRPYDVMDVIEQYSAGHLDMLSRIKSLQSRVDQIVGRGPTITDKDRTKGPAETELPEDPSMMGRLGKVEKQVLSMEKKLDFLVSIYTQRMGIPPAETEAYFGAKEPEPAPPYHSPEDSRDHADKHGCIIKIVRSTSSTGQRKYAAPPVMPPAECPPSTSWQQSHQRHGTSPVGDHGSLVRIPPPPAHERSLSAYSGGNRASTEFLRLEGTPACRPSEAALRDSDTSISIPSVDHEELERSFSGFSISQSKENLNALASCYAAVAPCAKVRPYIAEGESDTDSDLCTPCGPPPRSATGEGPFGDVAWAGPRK
KCNQ2 pot baseline = recorded beside KCNQ2 pot, whose call it bears; B-score; compound at 10 µM; measured here: initial fluorescence intensity artifact check;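 brightness before thallium and not channel activity; 0 = typical well and far values either way flag optical interference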
* hit, by the source's call.

SMILES	KCNQ2 pot	KCNQ2 pot baseline
CC12CC(NC(=O)N1Cc1ccccc1)c1ccccc1O2 (centres undefined)	0.43	-0.14
COC(=O)c1ccc(COc2ccccc2/C=C(\C#N)C(=O)Nc2ccc(C)cc2)cc1	0.07	0.04
O=C1C=C(Nc2ccccc2)C(=O)c2ccccc21	2.07	-2.18
Cc1ccc2c(c1)c(N=Nc1cccc(C(=O)O)c1)c(O)n2C	1.56	-3.11
O=C(Nc1nccs1)C1CCN(S(=O)(=O)c2cccs2)CC1	0.66	1.1
CN(C)c1ccc(/C=N/NC(=O)CNC(=O)/C=C/c2ccco2)cc1	0.45	-0.55
O=C(CSc1ccccn1)NC1CCCC1	0.67	0.92
Cc1cc(=O)[nH]c(N2CCc3ccccc3C2)n1	0.47	0.17
CCCCNC(=S)NNC(=O)c1ccc2c(c1)OCO2	1.79	-1.58
Cc1ccnc(NS(=O)(=O)c2ccc(NC(=O)CN3C(=O)CCC3=O)cc2)n1	0.87	0.17
CCOC(=O)C1(C)NC(c2ccco2)C2C(=O)N(c3ccccc3)C(=O)C21 (centres undefined)	0.53	0.01
CN(C)CCCNc1nc(N)c([N+](=O)[O-])c(NC2CCCCC2)n1	0.61	-0.66
Cc1nc(Cl)sc1C(=O)Nc1cccc(Cl)c1	1.43	-0.87
Cc1ccc(-c2nnc(CSc3nncn3N)o2)cc1	0.7	-0.53
COC(=O)c1scc(C)c1NC(=O)C(Cl)c1ccccc1 (centres undefined)	0.58	0.19
O=C(CSc1nnc(CNC(=O)c2ccco2)o1)Nc1cccc(C(F)(F)F)c1	0.45	-0.31
COc1ccc(OC)c(Cc2nnc(CCC(=O)NCc3ccsc3)o2)c1	0.11	-0.16
Cc1cccc(N2CCN(C(=O)c3ccc(CNc4c(N5CCC(C)CC5)c(=O)c4=O)cc3)CC2)c1C	0.9	-1.07
COc1cccc(C(=O)NCc2ccco2)c1	8.95*	-1.41*
COc1ccc2nc(NC(=O)c3ccc(NS(=O)(=O)c4cccs4)cc3)sc2c1	0.47	-0.87
NC(=O)c1ccsc1NC(=O)COC(=O)Cc1c[nH]c2ccccc12	2.82	-1.46
COc1ccccc1C(=O)N1CCN(C(=O)COc2cccc(C)c2)CC1	0.01	-0.26
Cn1c(NC2CCCCC2)cc(=O)n(C)c1=O	0.16	-0.78
CCc1nnc(NC(=O)CSCc2cc(=O)n3cc(C)sc3n2)s1	0.67	-0.17

Nothing new here: four of the compounds above.
SMILES	KCNQ2 pot	KCNQ2 pot baseline
Cc1nc(Cl)sc1C(=O)Nc1cccc(Cl)c1	1.43	-0.87
Cc1ccc(-c2nnc(CSc3nncn3N)o2)cc1	0.7	-0.53
COC(=O)c1scc(C)c1NC(=O)C(Cl)c1ccccc1 (centres undefined)	0.58	0.19
O=C(CSc1nnc(CNC(=O)c2ccco2)o1)Nc1cccc(C(F)(F)F)c1	0.45	-0.31

The listing continues.
SMILES	KCNQ2 pot	KCNQ2 pot baseline
O=C(Nc1ccc(CN2CCS(=O)(=O)CC2)cc1)c1ccc(F)cc1	0.76	0.27
CC(C)(C)NC(=O)NC(=O)CN1CCC(Cc2ccccc2)CC1	3.53	-1.53
COc1cc2c(C#N)c(N3CCOCC3)nc(N)c2c(N)n1	1.1	0.75
O=C(NCCc1ccccc1)c1ccc(NC(=O)c2cccnc2)cc1	0.14	0.95
CCn1c(CC(=O)Nc2ccccc2F)nnc1SCC(=O)N1CCOCC1	1.1	-0.1
COC(=O)c1cc(COC(=O)COc2ccc(C)c(C)c2)oc1C	1.37	0.56
Cc1cc(C(=O)NNC(=O)c2nn(C)c(=O)c3ccccc23)c(C)o1	1.09	-2.73
O=C(CS(=O)(=O)c1ccccc1)NCc1ccccc1	1.47	-0.75
COc1cc(NC(=O)C2CCC(CNS(=O)(=O)c3csc(C(N)=O)c3)CC2)cc(OC)c1 (centres undefined)	0.28	0.53
Cc1cc(NC(=O)CSc2nc(-c3ccccc3)cs2)no1	1.67	0.01
O=c1[nH]c(/C=C/c2cccnc2)c([N+](=O)[O-])c(=O)[nH]1	0.96	0.12
COc1ccc(OC(C)C(=O)NCCc2nc3ccccc3[nH]2)cc1 (centres undefined)	0.92	-0.32
COc1ccccc1NC(=O)CSc1ncn(-c2ccccc2)n1	1.5	0.02
Nc1ccc(CNc2ncn[nH]2)cc1	0.2	0.96
CCNC(=O)c1cnn(-c2ccccc2)c1-c1ccccc1	0.15	2.02
CCCOc1ccc(C(=O)OCCN2CCCCC2)c(O)c1	0.06	-1
CCCOc1ccc(-c2nc3c(c(=O)[nH]c(=O)n3Cc3ccccc3)n2CCO)cc1OCC	1.09	0
Cc1cccc(-n2nc3c(c2NC(=O)c2ccco2)CS(=O)(=O)C3)c1C	0.05	-1.43
CCOC(=O)C1CCN(C(=O)CSC2=NCCS2)CC1	0.07	1.91
Cc1ccc(C(=O)N/N=C/c2ccoc2)cc1C	0.05	1.41
COc1ccc(OCC(=O)c2c(O)c3ccccc3oc2=O)cc1	0.03	1.37
O=C(O)CC(NC(=O)C(c1ccccc1)c1ccccc1)c1ccc(F)cc1 (centres undefined)	0.04	1.59
CC(=O)c1ccc(NC(=O)Nc2ccc(Cl)cc2)cc1	0.21	-0.6
Cc1cc(N/N=C/c2ccc(O)cc2O)nc(N2CCOCC2)n1	0.3	-0.56
CCCn1c(N)c(C(=O)CSc2nnc(C)n2Cc2ccccc2)c(=O)n(C)c1=O	0.05	0.93
O=C(OCC(=O)N1CCOCC1)c1cccc(F)c1	0.06	-0.74
O=C(O)/C=C/C(=O)NCCC1=CCCCC1	0.47	-0.47
CCc1nn(CC(=O)NCCCN(C)C2CCCCC2)c(=O)c2cc3occc3n12	0.93	2.96
O=C(Nc1ccc(Br)cc1)c1cccc(OC(=S)N2CCOCC2)c1	0.34	0.04
COC(=O)Cn1c(=NC(=O)c2sc3ccccc3c2Cl)sc2cc(S(N)(=O)=O)ccc21	0.5	1.19
Cc1ccc(NC(=O)CCC(=O)NNC(=O)c2ccccc2[N+](=O)[O-])c(C)c1	0.4	0.48
CCC(C)c1ccc(NC(=S)N2CCN(c3ccccn3)CC2)cc1 (centres undefined)	1.27	0.07
CCOc1cc2[nH]c(=S)n(CCOC)c(=O)c2cc1OCC	0.16	0.18
CCn1c(CNC(=O)c2cccs2)nnc1SCC(=O)NCCc1ccccc1	0.35	-0.27
Cn1c(=O)c2c(nc(NCCNC(=O)c3ccco3)n2Cc2ccc(F)cc2)n(C)c1=O	1.62	-0.05
O=C(O)CN1C(=O)SC(Nc2ccc(C(=O)O)cc2)C1=O (centres undefined)	1.02	-0.81
COc1ccccc1/C=N/n1c(C)nnc1-n1nc(C)cc1C	0.51	0.05
Cc1ccc(N(C(=O)c2csnn2)C(C(=O)NC(C)(C)C)c2ccccn2)cc1 (centres undefined)	1.09	0.85
O=C(COC(=O)c1ccc(NS(=O)(=O)c2cccs2)cc1O)Nc1ccc(F)cc1	1.14	0.01
COc1cccc(OCc2nc(-c3cccc([N+](=O)[O-])c3)no2)c1	0.72	-1.1
CN(C)CCCN1C(=O)C(O)=C(C(=O)c2cccs2)C1c1cccc([N+](=O)[O-])c1 (centres undefined)	0.42	0.77
Cc1ccc(NC(=O)C(=O)NCC2CCCN2S(=O)(=O)c2cccs2)cc1C (centres undefined)	0.11	-0.53
CC1CCc2cc(F)ccc2N1C(=O)c1ccncc1 (centres undefined)	0.01	-0.45
COc1cc(NC(=O)COC(=O)CSc2ccccc2F)c(C)cc1[N+](=O)[O-]	1.55	-1.65
CCCc1nnc(NC(=O)CC(C)c2ccccc2)s1 (centres undefined)	0.15	-0.93
Cc1ccc(S(=O)(=O)N2CCN(C(=O)CC(C)n3nc(C)c(Cl)c3C)CC2)cc1 (centres undefined)	0.44	0.01
COc1ccc(OC)c(-c2csc(NC(=O)C3=COCCO3)n2)c1	0.71	1.04
CS(=O)(=O)CCC(C(=O)O)N1C(=O)c2ccc(Oc3ccc(Cl)cc3)cc2C1=O (centres undefined)	0.89	-2.43

Some of the entries above, set out differently:
KCNQ2 pot | KCNQ2 pot baseline | SMILES
0.11 | -0.53 | Cc1ccc(NC(=O)C(=O)NCC2CCCN2S(=O)(=O)c2cccs2)cc1C (centres undefined)
0.01 | -0.45 | CC1CCc2cc(F)ccc2N1C(=O)c1ccncc1 (centres undefined)
1.55 | -1.65 | COc1cc(NC(=O)COC(=O)CSc2ccccc2F)c(C)cc1[N+](=O)[O-]
0.15 | -0.93 | CCCc1nnc(NC(=O)CC(C)c2ccccc2)s1 (centres undefined)
0.44 | 0.01 | Cc1ccc(S(=O)(=O)N2CCN(C(=O)CC(C)n3nc(C)c(Cl)c3C)CC2)cc1 (centres undefined)
0.71 | 1.04 | COc1ccc(OC)c(-c2csc(NC(=O)C3=COCCO3)n2)c1

Going on with the list.
SMILES	KCNQ2 pot	KCNQ2 pot baseline
COc1ccc(N2C(=NC(=O)CCC3CCCC3)SC3CS(=O)(=O)CC32)cc1 (centres undefined)	0.18	0
Cc1nnc(Nc2ccc(C(=O)NCCO)cc2)c2ccccc12	0.22	-0.4
COc1cccc(C(=O)OCC(=O)c2c[nH]c3ccccc23)c1O	0.25	0.71
Cc1cc([N+](=O)[O-])nn1CCCC(=O)N1CCN(c2ccc(F)cc2)CC1	0.83	-0.45
CCOC(=O)C1CCN(CC(=O)Nc2cc(S(=O)(=O)N3CCOCC3)ccc2C)CC1	0.04	-1.01
CCCOc1ccc(-c2nnc(N)s2)cc1	3.19	-0.04
CS/C(N)=N/N=C/c1c(O)ccc2ccccc12	0.61	1.93
Cc1ccc(C)c(SCC(=O)NCc2ccco2)c1	0.09	-0.02
Nn1c(SCC(=O)Nc2ccc3c(c2)OCO3)nnc1-c1cccc(Cl)c1	0.62	-0.1
C=CCNC(=O)/C=C/c1cccs1	1.63	0.3
CCOC(=O)c1c(-c2ccccc2)oc2ccc(OCC(N)=O)cc12	0.96	-0.46
O=[N+]([O-])c1ccc(Nc2nc(NC3CCCCC3)nc(N3CCCC3)n2)cc1	1.3	0.1
COC(=O)c1ccc(OC(=O)c2cccnc2)cc1	0.89	-1.13
COc1ccc(CCC(=O)Nc2sccc2C#N)cc1	1.99	-1.6
Cc1cccc(NS(=O)(=O)c2ccc(C3CCCCC3)cc2)n1	1.6	-0.49
Cn1c(CSc2ccccc2)c(C#N)c2ccccc21	0.32	-1.61
CN1CCN(NC(=O)c2ccc(Br)c(S(=O)(=O)N3CCOCC3)c2)CC1	0.87	0.2
Cc1cc(C(=O)Nc2ccc(Br)cc2)cs1	3.12	0.91
Cc1ccc(NC(=O)CN2CCOCC2)c(Br)c1	0.29	0.1
Cc1cccc(NC(=O)CSc2ccc(C(N)=O)cc2[N+](=O)[O-])c1C	1.36	1.69
CCN(CC)CCC(c1cc(OC)c(OC)c(OC)c1)c1c(O)cc(OC)cc1OC (centres undefined)	2.92	0.53
CCC(=O)c1cc2c(C)cc(=O)oc2c(C)c1O	2.89	-0.13
C[C@H](NC(=O)C1CC(=O)N(c2ccc3c(c2)OCCO3)C1)C(=O)N1CCCCC1 (some centres undefined)	0.11	-1.46
O=C(COC(=O)Cc1cccc(C(F)(F)F)c1)Nc1ccc2c(c1)OCCO2	2.04	-0.04
CN(C)c1ccc(P(=O)(OCc2ccccc2)C(O)c2ccccc2F)cc1 (centres undefined)	0.03	0.66
CCOC(=O)c1c(NC(=O)C(C)OC(=O)c2ccc(NC(=O)CC#N)cc2)sc2c1CCCC2 (centres undefined)	3.25	1.05
O=C(CN1CCC(NC(=O)c2cccc(F)c2)CC1)NCc1cccs1	0.4	-0.41
CC(Oc1ccc(F)cc1)C(=O)N1CCN(c2ncccn2)CC1 (centres undefined)	0.89	0.03
C/C(=N\OCC(=O)OCC(=O)N(Cc1ccccc1)C(C)(C)C)c1ccc2c(c1)OCO2	0.03	0.12
COc1ccc(CNc2nc(-c3cccnc3)nn2S(C)(=O)=O)cc1	0.56	0.72
COc1ccc(-c2nc(CC(=O)O)cs2)cc1OC	0.54	-0.37
COC(=O)c1c(N)c2ccccc2[nH]c1=O	0.73	0.07
O=C1CC(NC2CCN(C(=O)c3cccc(F)c3)CC2)C(=O)N1 (centres undefined)	0.97	0.86
Cc1c(NC(=O)COC(=O)c2c3c(nc4ccccc24)CCCC3)c(=O)n(-c2ccccc2)n1C	0.19	-0.29
Cc1cc(C)n(-c2ccc(OCC(=O)O)nn2)n1	0.44	0.24
COC(=O)c1sccc1NC(=O)c1cc(C)on1	1.48	0.28
O=C1CC(NS(=O)(=O)c2ccc(F)cc2)CN1c1ccc2c(c1)OCCO2 (centres undefined)	1.58	0.45
C=CCS/C(N)=N\N=C\c1c(O)ccc2ccccc12	2.54	-0.58
COc1ccc(N(CC(=O)Nc2ccc3c(c2)OCO3)S(C)(=O)=O)c(OC)c1	0.87	-0.71
CCC(C)(NC(=O)c1ccccn1)C(=O)NC1CCCCC1 (centres undefined)	0.34	1.53
COc1ccc(OC)c(CNC(=O)c2cc(=O)[nH]c3ccc(S(=O)(=O)N4CCCC4)cc23)c1	0.84	0.17
CCn1c(SCC(=O)NC(C)(C)C)nnc1-c1ccccn1	1.16	-0.16
COc1cc(C2C(C#N)=C(N)Oc3c2ccc2ccccc32)ccc1OCC(=O)Nc1ccc(C)cc1 (centres undefined)	1.04	2.03
Cc1c(C(=O)O)cccc1-c1ccc(/C=C2\SC(=O)NC2=O)o1	2.17	-1.73
O=C(O)C1C2C=CC(O2)C1C(=O)Nc1ccc(S(=O)(=O)N2CCc3ccccc32)cc1 (centres undefined)	0.44	1.32
C[C@@H](O)[C@H]1C(=O)N2C(C(=O)O)=C(S[C@@H]3CN[C@H](C(=O)N(C)C)C3)[C@H](C)[C@H]12	0.09	0.99
O=C(CCc1nnc2ccc(N3CCC4(CC3)OCCO4)nn12)Nc1ccc(F)cc1	1.11	-0.55

These rows are one share of the data; count on the stated rates, not on these rows.
